WNV protease inh: inhibitors of West Nile virus NS2B-NS3 protease; actives 0.18% (n = 65,000); WNV NS2B-NS3 protease, fluorogenic substrate Ex360/Em465; stronger effect = lower value; AID 577; z-score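 (tested at a level between 10 and 100 µM)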;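 active means z-score at -3 or under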;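 further: score is relative to mean and spread of the compound wells of a plate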
Target sequence (P06935 1371-1501 limits assumed): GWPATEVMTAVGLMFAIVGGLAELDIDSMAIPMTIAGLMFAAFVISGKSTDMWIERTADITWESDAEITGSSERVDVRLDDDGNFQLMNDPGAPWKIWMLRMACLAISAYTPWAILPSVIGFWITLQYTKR
Target sequence (P06935 1502-1679 limits assumed): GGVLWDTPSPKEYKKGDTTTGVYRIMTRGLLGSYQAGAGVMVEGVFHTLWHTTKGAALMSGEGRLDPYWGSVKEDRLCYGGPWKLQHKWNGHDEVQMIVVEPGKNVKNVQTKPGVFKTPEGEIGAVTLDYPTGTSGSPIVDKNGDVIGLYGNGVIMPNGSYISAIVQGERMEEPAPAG
Hsc70 ATP site: small molecules displacing fluorescent ligand from Hsc70 – biochemical, fluorescence polarization, primary screen (AID 568). 83,000 tested, under 10 active. displacement, % at 20 µM; hits with a dose series show IC50 in µM. Hsc70 fluorescence polarization, probe displacement; higher % means a stronger effect; strong numbers were not always called active;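 active means displacement above 50% without optical interference and an IC50 on retest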;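 further: ATPase domain with a fluorescein-tagged ATP probe; 0% = vehicle and 100% = excess ADP; read after one hour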
MT1-MMP promoter: MT1-MMP gene expression reporter suppression – cell-based, luciferase reporter, luminescence (AID 618). MT1-MMP promoter luciferase reporter cells, luminescence. calls from a first round at 10 µM; hits with a dose series show EC50 in µM. actives 0.62% (n = 87,000);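 active means over half of the reporter light lost at 10 µM or EC50 under 50 µM; inactive means the rest and hits that failed the dose series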;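 further: actives suppress MT1-MMP promoter-driven transcription so potencies describe inhibitors; HT1080 fibrosarcoma cells; overnight exposure; toxic or luciferase-blocking compounds were not removed from the actives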
* marks the source's active call; other numbers are inactive results; i = inactive; nt = not tested or not shown.

SMILES | WNV protease inh | Hsc70 ATP site | MT1-MMP promoter
Cc1noc(C)c1C(=O)Nc1ccc2c(c1)CCC2 | 0.92 | -4.4% | i
COCC(=O)NCCc1nc2ccccc2[nH]1 | 0.97 | 3.7% | i
CCCCOc1ccc(-n2nc(C)cc2C)nn1 | nt | -2.4% | i
CCOC(=O)Cc1nnc(NC(=O)c2ccccc2OC)s1 | -0.52 | 2.2% | i
Cc1nc2scc(-c3ccccc3)c2c(=O)o1 | -0.95 | -0.7% | i
CCOC(=O)Cc1csc(NC(=O)CC(C)(C)C)n1 | nt | -0.8% | i
c1cnc(N2CCN(c3ncnc4c3oc3ccccc34)CC2)nc1 | -0.79 | -0.7% | i
CCOC(=O)N1CCN(c2c(NCCN3CCCCC3CC)c(=O)c2=O)CC1 (stereo unspecified) | 0.66 | 0.7% | i
O=c1c2c([nH]c3ccc(Br)cc13)CCCC2 | 0.39 | 4.3% | i
COc1ccccc1N1CCN(CC(=O)c2c(C)[nH]c3cc(C)ccc23)CC1 | -0.95 | -0.6% | i
NS(=O)(=O)c1ccc(CCNC(=O)c2ccccc2F)cc1 | -0.86 | 8.7% | i
COc1ccc(N)cc1C#N | 0.17 | -2.0% | i
Cc1ccc(NC(=O)C2=C(O)CCn3c2nc2ccccc23)cc1 | nt | -3.1% | i
COC(=O)C1=C(N)Oc2cc(C)n(CC3CCCO3)c(=O)c2C1c1ccc(Cl)c(Cl)c1 (stereo unspecified) | nt | 0.2% | i
CC(C)C12CN3CC(C(C)C)(CN(C1)C3c1ccccc1O)C2=O (stereo unspecified) | 0.45 | 1.4% | i
COc1ccc(NC2CS(=O)(=O)CC2OC(=O)c2ccc(F)cc2)cc1 (stereo unspecified) | 0.34 | 1.2% | i
O=C(Cc1ccccn1)Nc1ccccc1 | 0.98 | 8.9% | i
O=C(CN1C(=O)c2cccc3cccc1c23)NCc1ccc2c(c1)OCO2 | -0.32 | 2.2% | i
CCCCNC(=O)Nc1nnc(-c2ccc(OCC)cc2)o1 | nt | 2.5% | i
O=C(N/N=C\c1cc(Br)cs1)C1COc2ccccc2O1 (stereo unspecified) | nt | 2.0% | i
O=C(c1ccc2c(c1)OCO2)N1CCOCC1 | nt | 0.1% | i
COc1ccc(C2C(C#N)=C(/N=C/N3CCOCC3)OC3=C2C(=O)CC(C)(C)C3)cc1OC (stereo unspecified) | nt | 1.7% | i
CCCc1cc(=O)[nH]c(SCC(=O)Nc2c(C)cccc2C)n1 | nt | 0.0% | i
CCn1cc(C2=NOC(C(=O)Nc3cccc(C(C)=O)c3)C2)c(C)n1 (stereo unspecified) | -0.7 | -5.5% | i
CN(C)C(CNC(=O)CN1C(=O)NC2(CCc3ccccc32)C1=O)c1ccco1 (stereo unspecified) | 0.17 | -4.1% | i
COC(=O)c1[nH]c2cccc(Cl)c2c1NC(=O)CN1CCN(CCO)CC1 | -0.73 | 6.0% | i
COc1ccc(C2SCCN2S(=O)(=O)c2ccc(NC(C)=O)cc2)cc1 (stereo unspecified) | nt | 1.6% | i
COc1ccc(OC)c(N=C(C)C2=C(O)COC2=O)c1 | 0.2 | 2.1% | i
c1ccc(C2=Nn3c(nnc3-c3cccnc3)SC2)cc1 | -0.01 | 0.8% | i
CN(C)c1ccc(NC(=O)c2cc3c(=O)n4ccccc4nc3n2C)cc1 | -0.96 | -9.2% | i
CC(=O)N(CCCN1CCOCC1)Cc1ccncc1 | nt | -8.1% | i
O=C1C(C=NCc2cccnc2)=C(O)c2ccccc21 | -0.56 | 1.1% | i
CCOC(=O)C1CCN(C(=O)C(C)Sc2ccc(Cl)cc2)CC1 (stereo unspecified) | nt | 2.3% | i
CC(=O)Nc1ccc(C(=O)n2nc(C)cc2C)cc1 | -0.3 | 6.8% | i
O=C(COc1ccc(S(=O)(=O)NC2CCCCC2)cc1)N1CCN(c2cccc(Cl)c2)CC1 | nt | 1.1% | i
O=C(CSc1nnnn1-c1ccccc1Cl)Nc1ccc2c(c1)OCCO2 | 0.02 | 1.9% | i
CCOC(=O)C1CCN(C(=O)CN(c2ccc(OC)c(OC)c2)S(=O)(=O)c2ccccc2)CC1 | -0.73 | -0.2% | i
O=C(NCc1ccc2c(c1)OCO2)C1CCC(CNc2c(N3CCCCC3)c(=O)c2=O)CC1 (stereo unspecified) | -0.14 | 3.0% | i
O=C(c1ccccc1F)N(Cc1ccc(F)cc1)C1CCS(=O)(=O)C1 (stereo unspecified) | -0.29 | 3.9% | i
Cc1cc(C)c(S(=O)(=O)Nc2cccnc2)c(C)c1 | -0.13 | 18% | i
CCCCCCn1c(C(C)NC(=O)c2ccco2)nc2ccccc21 (stereo unspecified) | 0.38 | -3.1% | i
C=CCn1c(=N)n(CC(=O)O)c2ccccc21 | 0.15 | 2.0% | i
O=C(CN(Cc1cccs1)C(=O)CNS(=O)(=O)c1ccc(Cl)cc1)NCc1ccco1 | nt | 1.8% | i
Cc1ccc(S(=O)(=O)N(C)c2ccc(C(=O)N3CCC(C(N)=O)CC3)cc2)cc1 | 0.23 | -5.7% | i
O=C1CC(Nc2ccc(N3CCOCC3)cc2)C(=O)N1c1ccccc1F (stereo unspecified) | -0.45 | 5.1% | i
COc1ccc(OC)c2[nH]c(=O)c(CCNC(=O)C3CCCCC3)cc12 | 0.19 | 1.8% | i
COc1cccc(NC(=O)Cn2cc(C#N)c3ccccc32)c1 | nt | -1.3% | i
COc1ccc2nc(-c3cccc(N)c3)[nH]c2c1 | nt | 1.5% | i
O=C(NC1CCCC1)C1CC(=O)N(C2CCCCCCC2)C1 (stereo unspecified) | 0.02 | 3.2% | i
Oc1ccc(C2Nc3cccc4cccc(c34)N2)c(O)c1 | nt | 2.5% | i
CCc1ccc2[nH]c(=O)c(CN(Cc3ccccc3)C(=O)Nc3ccccc3OC)cc2c1 | nt | -2.2% | i
O=C(CCC(=O)c1cccs1)OCC(=O)N1CCN(S(=O)(=O)c2ccccc2)CC1 | 0.14 | -5.3% | i
N#CCCn1cnc2ccccc21 | -0.86 | 0.1% | i
CC(=O)c1c(N2CCOCC2)nc(=S)n(-c2ccc([N+](=O)[O-])cc2)c1C | nt | -1.3% | i
Cc1nc(NS(=O)(=O)c2ccccc2)sc1NC(=O)OCCN(C)C | 0.6 | 5.3% | i
CC(NC(=O)CCSc1nc(-c2ccc3c(c2)OCO3)cc(C(F)(F)F)n1)c1ccccc1 (stereo unspecified) | nt | 3.7% | i
CCCCNC(=O)c1cc2c(=O)n3cccc(C)c3nc2n(CCN2CCOCC2)c1=N | 2.5 | -3.0% | i
O=C(NCN1CCN(c2ccccc2F)CC1)c1ccccc1 | 1.1 | 4.2% | i
COc1ccc(N2C(=O)CC(N(Cc3ccc(S(N)(=O)=O)cc3)C(C)=O)C2=O)cc1 (stereo unspecified) | 0.16 | 1.2% | i
CCCOc1cccc(C(=O)Nc2cccnc2)c1 | 0.09 | 4.3% | i

(further entries)
SMILES | WNV protease inh | Hsc70 ATP site | MT1-MMP promoter
CCN1CCN(c2cc(C)c3cc(NC(=O)c4cccnc4Cl)ccc3n2)CC1 | nt | 6.0% | i
CN1CCN(C(=O)c2ccccc2-c2nc(-c3ccccc3)no2)CC1 | -0.6 | -5.1% | i
Cc1csc(NC(=O)c2c(-c3c(Cl)cccc3Cl)noc2C)n1 | nt | -5.7% | i
CCOc1ccc(C(=O)O)cc1OC | 0.11 | -3.6% | i
CN1CCN(C2=Cc3cc(Cl)ccc3Sc3cc(F)ccc32)CC1 | nt | 1.7% | i
Cc1ccccc1Cn1nc(C)c(NC(=O)c2cc3n(n2)C(C(F)F)CC(C(F)F)N3)c1C (stereo unspecified) | 0.59 | -5.8% | i
CNC(=O)CSc1nnc(-c2ccco2)n1-c1ccc(C)cc1 | nt | -3.0% | i
CCOC(=O)c1cc2sc(C)cc2n1C(C)C(=O)OCC (stereo unspecified) | 0.82 | 2.6% | i
O=S(=O)(NCc1ccccc1)c1cccc(S(=O)(=O)N2CCOCC2)c1 | nt | 2.3% | i
O=C(NCc1ccco1)c1ccccc1NS(=O)(=O)c1ccc(Cl)s1 | nt | 2.4% | i
O=C1C(=O)N(Cc2cccnc2)C(c2ccccn2)/C1=C(/O)c1ccc(F)cc1 (stereo unspecified) | 0.47 | 9.8% | i
O=C(CCN1CCN(C(=O)c2ccco2)CC1)Nc1ccc(F)cc1 | -1.2 | -0.6% | i

Structural class: those above with fluorine
SMILES | WNV protease inh | Hsc70 ATP site | MT1-MMP promoter
NS(=O)(=O)c1ccc(CCNC(=O)c2ccccc2F)cc1 | -0.86 | 8.7% | i
COc1ccc(NC2CS(=O)(=O)CC2OC(=O)c2ccc(F)cc2)cc1 (stereo unspecified) | 0.34 | 1.2% | i
O=C(c1ccccc1F)N(Cc1ccc(F)cc1)C1CCS(=O)(=O)C1 (stereo unspecified) | -0.29 | 3.9% | i
O=C1CC(Nc2ccc(N3CCOCC3)cc2)C(=O)N1c1ccccc1F (stereo unspecified) | -0.45 | 5.1% | i
CC(NC(=O)CCSc1nc(-c2ccc3c(c2)OCO3)cc(C(F)(F)F)n1)c1ccccc1 (stereo unspecified) | nt | 3.7% | i
O=C(NCN1CCN(c2ccccc2F)CC1)c1ccccc1 | 1.1 | 4.2% | i
CN1CCN(C2=Cc3cc(Cl)ccc3Sc3cc(F)ccc32)CC1 | nt | 1.7% | i
Cc1ccccc1Cn1nc(C)c(NC(=O)c2cc3n(n2)C(C(F)F)CC(C(F)F)N3)c1C (stereo unspecified) | 0.59 | -5.8% | i
O=C1C(=O)N(Cc2cccnc2)C(c2ccccn2)/C1=C(/O)c1ccc(F)cc1 (stereo unspecified) | 0.47 | 9.8% | i
O=C(CCN1CCN(C(=O)c2ccco2)CC1)Nc1ccc(F)cc1 | -1.2 | -0.6% | i

(list continues)
SMILES | WNV protease inh | Hsc70 ATP site | MT1-MMP promoter
O=C(CCc1nc(-c2ccccc2F)no1)NCc1ccco1 | 0.4 | -1.0% | i
O=C(CN1C(=O)c2cccc3cccc1c23)N1CCN(c2ccccc2)CC1 | 1.1 | -4.7% | i
Cc1cccc(Cn2c(SCCN3CCOCC3)nc3c2c(=O)n(C)c(=O)n3C)c1 | -0.28 | -1.3% | i
COc1cc(CN2CCC(C(=O)NC3CCCC3)CC2)cc(Br)c1O | 0.31 | 2.2% | i
CCc1nc(NCC(C)C)c(C#N)c2c1COC(C)(C)C2 | 0.53 | -1.7% | i
C=CCN(CC=C)S(=O)(=O)c1ccc2nsnc2c1 | 2.7 | -5.6% | i
COc1ccc(C(C(=O)NC2CCCC2)N(CCN(C)C)C(=O)c2snc(C(N)=O)c2N)cc1 (stereo unspecified) | 1.9 | 1.0% | i
O=C1OCc2cc(NC(=O)C3CCCCC3)ccc21 | -0.33 | 1.0% | i
O=C(C1CCC(CNc2nc(=S)[nH]c3ccccc23)CC1)N1CCN(c2ccccn2)CC1 (stereo unspecified) | -0.66 | 6.9% | i
CCOC(=O)CNC(=O)c1cccs1 | nt | 0.1% | i
COc1ccccc1C(=O)NC(C)c1nc2ccccc2[nH]1 (stereo unspecified) | -0.66 | -6.9% | i
CC(C)(C)n1nnnc1C(c1cccs1)N1CCN(C(=O)c2ccco2)CC1 (stereo unspecified) | nt | 1.5% | i
O=C(Nc1ccccc1C(=O)N1CCN(Cc2ccccc2)CC1)c1ccccn1 | -0.45 | 0.2% | i
CC(C)[C@@H]1NC(=O)N(c2ccc(Oc3ccccc3)cc2)C1=O | -0.12 | -0.8% | i
O=C(CSc1nnc(Cc2cc(=O)[nH]c(=O)[nH]2)n1-c1ccccc1)N1CCCc2ccccc21 | 1.8 | 2.6% | i
CCCCS(=O)(=O)NC1=NCN(CCO)CN1 | 0.36 | 5.7% | i
COc1cc(NC(=O)c2ccco2)c(OC)cc1NC(=O)CSc1ncc(-c2ccc(F)cc2)[nH]1 | -0.43 | 3.3% | i
O=C(O)C1CCCCC1C(=O)NCc1ccc(F)cc1 (stereo unspecified) | 1.7 | -5.0% | i
O=C(CCN1CCOCC1)Nc1ccc2c(c1)N(C(=O)CN1CCOCC1)c1ccccc1CC2 | -1.6 | -0.1% | i
CCOC(=O)C(O)(CC(=O)Nc1ccc(Cl)cc1Cl)C(F)(F)F (stereo unspecified) | nt | 6.5% | i
CCCCOC(=O)c1ccc(NC(=O)c2nn(C)cc2Br)cc1 | nt | -0.2% | i
COc1ccccc1C1/C(=C(/O)c2ccc(C)cc2)C(=O)C(=O)N1CCN1CCOCC1 (stereo unspecified) | 0.01 | -1.1% | i
O=C(Cn1nnc2ccccc2c1=O)NCc1ccco1 | -1.8 | 3.1% | i
O=C1CC(c2ccc(F)cc2)Cc2nc(NCc3ccco3)ncc21 (stereo unspecified) | 0.31 | 1.2% | i
CCOC(=O)Cc1nn2c(=O)cc(C)nc2s1 | -0.44 | -0.6% | i
CCC(=O)N1CCN(CCN=Cc2c(O)n(C3CCCCC3)c(=O)n(C3CCCCC3)c2=O)CC1 | -0.42 | -6.1% | i
O=C(Nc1ccccc1)N(C1=NCCCCS1)c1cccc2ccccc12 | nt | -2.7% | i
CNc1nnc(-c2cccc(N(C)C)c2)s1 | 0.18 | 0.4% | i
COc1cccc(/C=N/n2cnnc2)c1OCc1ccccc1 | 0.37 | 7.3% | i
Nc1nc(-c2c[nH]c3ccccc23)cs1 | 0.17 | -2.1% | i
CCCCC(=O)N/N=C/c1ccc(Sc2cccc3cccnc23)o1 | nt | 1.3% | i
CC(C)N(Cc1nc(-c2ccc(Cl)cc2)no1)C(=O)C12CC3CC(CC(C3)C1)C2 | 3.1 | -4.8% | i
COc1cccc(-c2nc(CS(=O)(=O)CC(=O)Nc3cccc(C)c3C)c(C)o2)c1 | -0.44 | 1.9% | i

This is a subset, so the mix of outcomes need not match the whole.
